# Screening results (PubChem BioAssay)
# ClpP mod – qHTS Assay for Activators of ClpP. ATP-dependent Clp protease proteolytic subunit (Bacillus subtilis (strain 168)), P80244. Potency, µM (top dose mostly 57.5 µM), for the others: top-dose activity change, negative = active. purified B. subtilis ClpP, FRET peptide cleavage, 20 min. 1.9% of 340,000 active. AID 651965, 2013; active = well fitted falling curve with a large enough effect; inconclusive = small, poorly fitted or top-dose-only effect; inactive = no such curve, though single readings can be large or run the other way; further: potency means the concentration at half of the fitted maximal effect; the source files actives as falling curves though it sought activators and does not explain the sign; nearly all actives have a fitted effect of over 65% in size; many hits overshoot -100%
# Target sequence (P80244 whole entry, looked up): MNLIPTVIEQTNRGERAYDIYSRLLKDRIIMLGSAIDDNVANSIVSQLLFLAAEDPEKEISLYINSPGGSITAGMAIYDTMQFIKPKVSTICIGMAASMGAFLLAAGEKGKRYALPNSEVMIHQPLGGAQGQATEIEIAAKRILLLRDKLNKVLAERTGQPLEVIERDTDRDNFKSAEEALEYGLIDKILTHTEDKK
#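 FRET quenching reversal measured ClpP activation: 10 microg/mL B. subtilis ClpP at pH 8 with the FRET-FV decapeptide, read at 430 nm after 320 nm excitation. The 20-min minus 0-min signal was scaled between DMSO/no-enzyme wells and ADEP (5.8 microM final).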
# CtBP-E1A blk – inhibitors of CtBP/E1A interaction; AlphaScreen GST-E1A/His-CtBP binding, 1536-well; stronger effect = lower value; control for the full effect not named in the record; activity change, % (concentration not given with the values); 0.49% of 340,000 active; AID 651724; in the data active means activity change below about -65%; inconclusive means about -30% to -65%; inactive means above about -30%; further: on the % scale 0 is the no-effect control and ±100 the full control effect
#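 GST-E1A and His-tagged CtBP (125 nM each as 5X stock) were preincubated with pin-transferred compound for 2 h at 37 °C in the dark, then glutathione donor and nickel acceptor beads were added for 1 h before AlphaScreen reading.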
# Sfp inh – inhibitors of Bacillus subtilis Sfp phosphopantetheinyl transferase. Q9F4F7. Biochemical Sfp PPTase activity, qHTS. Potency, µM, for the others: max response, negative = inhibition, hits mostly inhibitors. 3.5% of 310,000 active. AID 1490; active means well fitted inhibition curve with a large enough effect; inconclusive means small, poorly fitted or top-dose-only effect, or another doubt; inactive means no such curve, though single readings can be large or run the other way;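 further: the enzyme is Sfp with the accession as filed and its product quenches rhodamine fluorescence; potency means the concentration at half of the fitted maximal effect; 0% = enzyme reaction without inhibitor and -100% = no enzyme wells; top concentration of the series not given in the record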
#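 Compounds were incubated with enzyme (final 15 nM) for 15 min at room temperature before substrate addition started the reaction. Fluorescence at 525 nm excitation, 598 nm emission was recorded immediately and after 30 minutes.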
# gsp agonist – activates gsp, the McCune-Albright syndrome mutation; Potency, µM (titrated, usually from 76.9 µM), for inactives: at the highest dose activation (cAMP increase), actives largely listed as activators; AID 624287; gsp mutant cells, cAMP HTRF, 30 min; control for the full effect not named in the record; 0.13% of 340,000 active; active = well fitted activation curve with a large enough effect; inconclusive = small, poorly fitted or top-dose-only effect, or another doubt; inactive = no such curve, though single readings can be large or run the other way; cell line not stated here;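 further: phosphodiesterase inhibitor Ro 20-1724 added with compounds to block cAMP breakdown; potency means the concentration at half of the fitted maximal effect; nearly all actives have a fitted effect of over 60% in size; about a fifth of the inactives were tested at one dose only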
#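 Cells stably selected in G418 were plated at 2000/well, grown 16-24 hr, then given compounds in DMSO with the PDE inhibitor […] (300 uM solution added) for 30 min at 37C; cAMP was read by HTRF.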
# gsp antag – antagonists of gsp mutant (McCune-Albright syndrome); gsp-mutant cells, cAMP HTRF, 30 min; control for the full effect not named in the record; Potency, µM (top dose mostly 76.9 µM), inactives show top-dose activity change, negative = inhibition, usual class: inhibitors; 0.4% of 340,000 active; AID 624288; active = falling curve of any shape with a large fitted effect; inconclusive = falling curve, mostly with a smaller effect; inactive = flat or rising curve; cell line not stated here;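 further: intracellular cAMP measured with PDE inhibitor Ro 20-1724 present during compound exposure; potency means the concentration at half of the fitted maximal effect; on the % scale 0 is the no-effect control and ±100 the full control effect; nearly all actives have a fitted effect of over 65% in size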
#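 Cells, 2000/well, grown 16–24 h in DMEM 10% FBS with 0.5 mg/ml G418, then compounds plus […] (300 uM addition stock), 30 min at 37C. cAMP read by HTRF (cAMP-d2 and anti-cAMP antibody-K in lysis buffer) after 30 min RT.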
# Menin MLL FP FL – displaces fluorescein MLL peptide from human menin; AID 1766; Fluorescence polarization, fluorescein-MLL peptide displacement from menin; 290,000 tested, under 10 active; FP activity change, % at 61.4 µM; inconclusive = falling polarisation curve, or a change in total fluorescence; inactive = total fluorescence flat and polarisation flat or rising; no compound was filed as active; the % refers to the polarisation; negative = inhibition;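 further: % of control where 0% means no effect; inhibitors lower the polarisation; unlabelled MLL peptide was the positive control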
# TRPV1 potentiator – enhances activation of the human vanilloid receptor TRPV1; 0.02% of 320,000 active; Q8NER1; AID 540277; TRPV1-expressing cells, Fluo-8 calcium influx, capsaicin EC20 potentiation; host cell line not named in the record; control for the full effect not named in the record; potentiation, % at 8.33 µM; active means potentiation above 80%; inconclusive means 30% to 80%; inactive means below 30%; further: 0% is about no effect
# Target sequence (Q8NER1 whole entry, looked up): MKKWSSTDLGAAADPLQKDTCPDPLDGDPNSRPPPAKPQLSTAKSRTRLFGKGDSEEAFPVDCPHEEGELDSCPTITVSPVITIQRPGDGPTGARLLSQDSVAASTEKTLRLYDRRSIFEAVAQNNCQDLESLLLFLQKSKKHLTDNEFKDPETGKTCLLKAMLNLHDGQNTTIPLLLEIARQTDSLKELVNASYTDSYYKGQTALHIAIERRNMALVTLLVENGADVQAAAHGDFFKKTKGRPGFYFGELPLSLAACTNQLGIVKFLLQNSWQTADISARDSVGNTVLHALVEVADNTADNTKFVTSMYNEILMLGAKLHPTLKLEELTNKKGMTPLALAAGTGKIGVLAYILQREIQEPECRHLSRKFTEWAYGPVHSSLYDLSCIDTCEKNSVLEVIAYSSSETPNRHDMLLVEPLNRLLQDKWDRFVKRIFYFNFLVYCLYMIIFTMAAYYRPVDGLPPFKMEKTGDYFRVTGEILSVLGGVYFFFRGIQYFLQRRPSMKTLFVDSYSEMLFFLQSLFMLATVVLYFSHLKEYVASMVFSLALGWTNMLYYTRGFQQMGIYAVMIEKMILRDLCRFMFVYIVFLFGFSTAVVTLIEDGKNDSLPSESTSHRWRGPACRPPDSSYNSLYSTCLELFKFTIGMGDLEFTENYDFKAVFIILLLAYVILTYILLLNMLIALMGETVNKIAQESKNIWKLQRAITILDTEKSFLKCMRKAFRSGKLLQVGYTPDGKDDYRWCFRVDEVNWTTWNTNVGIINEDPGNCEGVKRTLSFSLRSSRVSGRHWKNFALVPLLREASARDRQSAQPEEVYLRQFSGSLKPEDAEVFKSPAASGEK
#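 Cells expressing TRPV1 were dye-loaded with Fluo-8 and read kinetically: 10 s baseline, 3 min after compound (agonist portion), then 2 min after EC20 capsaicin (allosteric enhancer portion). Calcium-bound dye fluorescence at 480/520 nm.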
# * = called active by the depositor; u = inconclusive; x = no result given; & = joins results of further samples; [ ] = another dose, or the depositor's remark.
SMILES,ClpP mod,CtBP-E1A blk,Sfp inh,gsp agonist,gsp antag,Menin MLL FP FL,TRPV1 potentiator
Nc1n[nH]c(S(=O)(=O)CCCc2ccccc2)n1,-5.8%,6,15%,8%,2%,0.5,10
CCOC(=O)C(CC)Sc1ccc2nnc(-c3cccnc3)n2n1 (stereo not drawn),4.8%&0.3%,3,-4%,46%[15.4 µM],17%,-0.3,-29
COc1cc(OC)c(-c2oc3ccccc3c(=O)c2O)c(OC)c1,28µM*,-1,x,u,7%,x,x
CCOc1cc(CNC2CCCC2)ccc1OCc1ccccc1Cl,1.8%,x,-3%,-7%,8%,0.5,7
CCCCN(CC)c1nc(-c2ccncc2)nc2ccccc12,-0.4%,26,u,11%,10%,10,-10
CC1(C)Cc2c(ccc3ccccc23)/C(=C/C(=O)N2CCCCC2)N1,-1.9%,u,-12%,-5%,35µM*,0.1,0
Cc1ccccc1N(CC(=O)NCc1ccccc1)C(=O)CCC(=O)Nc1nccs1,x,-1,5%,-1%[15.4 µM],-3%,-3.7,-27
COc1ccc(-n2nc(C(=O)NCC(=O)N3CCN(Cc4ccc5c(c4)OCO5)CC3)c3ccccc3c2=O)cc1OC,x,-1,19%,2%[15.4 µM],-10%,-2.5,-15
COC(=O)c1ccccc1NC(=O)COC(=O)C1CCCCC1,-6.1%,27,9%,20%,3%,1.3,-18
CCn1c(C)nc2cc(C(=O)N/N=C(\C)c3ccccc3O)ccc21,x,-28,38%[activator],1%[15.4 µM],-20%,-0.1,4
COc1cc(Cl)ccc1OCc1cc(C(=O)NC(C)Cc2cnccn2)no1 (stereo not drawn),1.4%,-1,4%,15%,4%,x,u
Cc1nn(Cc2ccccc2)c(Cl)c1/C=C/C(=O)OCC(=O)N1CCCC1=O,x,-3,-9%,-6%[15.4 µM],8%,-1.9,-22
O=S(=O)(c1ccccc1)N1N=C(c2cccs2)CC1c1ccc(Br)cc1 (stereo not drawn),0.3%,1,6%,-54%[inhibitor],-6%,-2.0,14
C[C@H](NC(=O)c1ncn2c1C(=O)NC[C@@H]2C)c1ccccc1,0.5%,-25,x,u,x,x,x
Cc1nn(-c2ccccc2)c(C)c1C(=O)Oc1ccccc1,-5.8%,3,1%,-5%[15.4 µM],-26%,2.6,-3
O=C1S/C(=C/c2ccccc2F)C(=O)N1CCN=C1NS(=O)(=O)c2ccccc21,-23%,-4,12%,-2%,-9%,-1.9,-10
O=C(c1ccc(-c2cccc(Cl)c2)o1)N1CCN(c2ccc([N+](=O)[O-])cc2)CC1,1.6%,1,-23%,14%[15.4 µM],23%,7.2,-7
Cc1cccc(-n2c(C)c(-c3ccccc3)[nH]c2=S)c1,-0.5%,-12,3.5µM*,-5%[15.4 µM],-11%,-4.4,-10
Fc1ccccc1Cc1noc(CN2CCN(C/C=C/c3ccccc3)CC2)n1,0.6%,x,-2%,-23%,2%,0.3,-5
CN(Cc1ccc(OC(F)F)cc1)C(=O)C1CCN(S(=O)(=O)c2ccc3c(c2)OCCO3)CC1,-25%,x,x,-3%,-16%,x,-1
COc1cc(C(=O)N2CCN(c3cccc(C(F)(F)F)c3)CC2)ccc1OCC(=O)N1CCOCC1,-0.3%,5,x,11%,2%,x,x
CCc1cc(=O)oc2cc(OCC(=O)OC)c(Cl)cc12,-3.8%,-3,-1%,21%,-6%,3.8,-21
Cc1csc(NC(C)c2nc3cc(Cl)c(Cl)cc3n2CCCO)n1 (stereo not drawn),-5.3%,-4,x,-44%[inhibitor],-6%,x,x
Cc1cccc(C)c1NC(=O)CN(C)C(=O)c1cccc(S(=O)(=O)N2CCN(C)CC2)c1,x,-7,x,-9%[15.4 µM],5%,x,-13
CCNC(=S)NNC(=O)c1ccncc1,2.3%,x,1%,15%,0%,-8.8,-3

# Following part
SMILES,ClpP mod,CtBP-E1A blk,Sfp inh,gsp agonist,gsp antag,Menin MLL FP FL,TRPV1 potentiator
CC(=O)C1=C(C)Nc2ncnn2C1c1cccc(OCc2ccccc2)c1 (stereo not drawn),-5.6%,-15,1%,u,-13%,-0.8,-20
Cc1cc(C(=O)OCC(=O)NC2CC2)ccc1[N+](=O)[O-],-1.8%,-4,x,-37%,-3%,x,-2
COc1cc(OC)c(C=NNC(=S)NC23CC4CC(CC(C4)C2)C3)c(OC)c1,-1.2%,-27,x,u,-7%,x,x
Cn1c(COc2ccccc2)nnc1SCc1nc2ccccc2[nH]1,0.2%,47,17%,1%,-5%,2.8,-3
O=C(NCCCn1cccn1)c1cc(COc2ccccc2)on1,1.4%,-3,x,u,x,x,x
COc1ccc(CCNC(=O)CC2Nc3cc(C)c(C)cc3NC2=O)cc1OC (stereo not drawn),u,-3,u,-2%,2%,5.7,-5
Oc1c(C=Nc2cccc3cccnc23)sc2ccccc12,x,x,-8%,x,x,u,5
CS(=O)(=O)N1CCc2cc(-c3csc(NC(=O)Cc4cccs4)n3)ccc21,-0.2%,-17,18%,6%,u,-0.4,-14
O=S(=O)(c1ccc(N2CCCC2)nc1)N1CCOCC1,-1.8%,16,13%,-4%,2%,3.0,5
CCOc1ccc(CNn2cnnc2)cc1,x,11,13%,-36%[inhibitor],6%,4.7,-3
COc1ccc(S(=O)(=O)N2CCC(C(=O)NCC3CCCO3)CC2)cc1OC (stereo not drawn),x,16,20%,11%[15.4 µM],9%,-1.0,3
COc1ccc(C(=O)/C=C/Nc2ccc(S(=O)(=O)Nc3cc(OC)nc(OC)n3)cc2)c(OC)c1,-2.4%,-30,-4%,-4%[15.4 µM],-18%,u,-8
O=C(NCCNC(=O)c1cccc(O)c1)c1cccc(O)c1,x,-9,15%,-11%,16%,2.3,-1
COc1ccc(C2CC(C(F)(F)F)n3ncc(C(=O)NCc4cccnc4)c3N2)cc1OC (stereo not drawn),2.9%,-6,26%,-15%,4%,8.2,17
CC(NC(=O)C1CCCC1)C1CC2CCC1C2 (stereo not drawn),28µM*,20,4%,15%,-13%,-0.2,u
CC(C)Sc1nnc(NC(=O)CCc2ccccc2)s1,0.9%,4,4%,-1%,11%,-2.4,25
O=C(Nc1nccs1)Oc1ccccc1,1.0%,1,0%,-15%,12%,3.0,-2
COc1cc(S(=O)(=O)N2CCN(c3ccc(F)cc3)CC2)ccc1Cl,1.1%,-2,0%,-6%,u,0.2,-5
Nn1cnnc1SCC(=O)N(C1CCCCC1)C1CCCCC1,x,1,12%,22%,-3%,0.1,23
O=C(N/N=C/c1cc2c(c([N+](=O)[O-])c1)OCO2)c1ccncc1,16%,4,-16%,-2%[15.4 µM],0%,-1.6,1
O=C1CCN(CCCN2CCC(=O)N(Cc3ccccc3)C2=S)C(=S)N1Cc1ccccc1,-0.5%,7,x,-53%[inhibitor],x,x,x
COc1ccc(NC(=O)CS(=O)CC(=O)NC2CCCc3ccccc32)cc1 (stereo not drawn),4.6%,-4,12%,-8%,7%,0.4,5
COc1ccc(NC(=O)c2nnn(CC(=O)Nc3ccc4c(c3)OCO4)c2N)cc1OC,10%,-4,10%,-16%,2%,-3.0,3
COc1ccc(NC(=O)NC23CC4(C)CC(C)(CC(C)(C4)C2)C3)cc1OC,3.1%,0,25%,-3%,-8%,6.8,-8
CCc1[nH]nc2c1C(c1ccc(C)o1)C(C#N)=C(N)O2 (stereo not drawn),x,u,20%,19%[15.4 µM],-45%,-0.9,-3

# (more compounds)
SMILES,ClpP mod,CtBP-E1A blk,Sfp inh,gsp agonist,gsp antag,Menin MLL FP FL,TRPV1 potentiator
CCOc1ccc(NC(=O)Nc2ccccc2SC)cc1,-0.3%,4,-11%,-13%[15.4 µM],-3%,-3.5,-6
CC(C)(C)OCC(NC(=O)C(CC(N)=O)NC(=O)OC(C)(C)C)C(=O)OC(C)(C)C (stereo not drawn),-0.1%,3,8%,-4%,13%,1.1,-7
O=C(COc1coc(CN2CCN(c3ccccc3)CC2)cc1=O)NC1CCCC1,-5.0%,4,x,2%[15.4 µM],11%,x,-4
Cc1cc(C)c(NC(=O)CSc2nc(=O)n(CCN3CCOCC3)c3c2CCC3)c(C)c1,-3.5%,8,x,11%,9%,x,0
CCOC(=O)CN1C(=O)C(O)=C(C(C)=O)C1c1ccccc1 (stereo not drawn),-7.7%,1,9%,26%,10%,6.8,7
Cc1ccnc2nc(C(=O)OCC(=O)N3CC(C)CC(C)C3)nn12 (stereo not drawn),x,5,x,7%[15.4 µM],8%,x,6
CCN(C(=O)c1cc(Cl)ccc1OC)C1CCCCC1,0.6%,7,17%,5%,-7%,0.4,0
Cc1cc(C)c2c(c1)c1nnc(SCCN3CCCCC3)nc1n2C,x,-25,4%,9%[15.4 µM],7%,1.7,2
O=C(CNC(=O)c1ccc(F)cc1)NCc1ccc(S(=O)(=O)N2CCOCC2)cc1,-0.3%,-4,x,-4%[15.4 µM],4%,x,0
COCc1cc(C)nc(SCC(=O)Nc2cccc3cccnc23)c1C#N,-24%,15,-14%,u,7%,4.5,12
COc1ccc(Cl)cc1NC(=S)NCCc1c[nH]c2ccccc12,-0.3%,-27,18%,11%,-24%,9.1,-10
Cc1ccc2nc(C)c(C(=O)NN=C3CCN(C)CC3)n2c1,x,-4,3%,-1%[15.4 µM],9%,-5.2,-4
COc1cc(-c2noc(CCCC(=O)NC3CCCCC3)n2)cc(OC)c1OC,-0.8%,3,-1%,-17%,-8%,-0.5,-3
CCC1=[N+](CC(=O)c2ccc(C)cc2)CCn2cccc21,x,10,7%,-34%[15.4 µM],15%,12,4
CCOC(=O)c1ccc(Nc2nnc(C)c3ccccc23)cc1,x,u,6%,44%[15.4 µM],-6%,0.5,-10
COc1ccc(S(=O)(=O)N2CCC3(CC2)OCCO3)cc1,x,4,14%,18%,2%,-2.8,0
Cn1c(SCC(=O)N2CCN(Cc3ccccc3)CC2)nnc1-c1ccncc1,0.5%,2,16%,-2%,-2%,0.8,10
CN1CCN(CCCCOc2cccc3ccccc23)CC1,x,-7,5%,u,11%,-5.3,20
Cc1nn(C)cc1/C=N/NC(=O)c1sc2ccccc2c1Cl,-0.6%,-22,13%,-27%,-16%,6.2,10
[O-][N+](=Cc1ccccc1)CC1(O)CCCCC1,-1.6%,-6,x,1%,x,x,x
